CapD inh: Bacillus anthracis CapD inhibitors, primary screen, biochemical, fluorescence intensity. purified CapD enzyme, fluorescence intensity read-out; active compounds read low; some hits fall short of the stated cut. z-score (concentration not given with the values). hit rate 0.23% among 140,000;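 active = z-score under -4 in either of two replicates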;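 also: stock transfer was 100 nL into about 40 µL; score is relative to mean and spread of the plate; one replicate is shown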
AID504770: growth inhibition of E. coli YBA685, primary screen, V. cholerae RctB inhibitors; hit rate 0.27% among 130,000; E. coli YBA685 rctB-dependent plasmid, OD600 growth, 3 h; active compounds read low; z-score (test concentration not listed);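 active = z-score under -2 on both plates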;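 also: wells of about 30 µL received 100 nL stock; score is relative to mean and SD of the test wells; the first replicate is given; strong numbers were not always called active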
Numbers without * were called inactive; . = no result given.

Every second line gives: CapD inh	AID504770
> CCOC(=O)c1ccc(NC(=O)CO/N=C/c2ccc3c(c2)OCO3)cc1
 : .	-0.5
> CCN1CCN(C(=O)c2cn(-c3ccccc3)nc2-c2cccs2)CC1
 : -0.33	1.6
> CC(=O)N1C(=O)C(Cc2ccccc2)N(C(C)=O)C(=O)C1Cc1ccccc1 (centres undefined)
 : -0.22	.
> O=C(NCCSc1ccc(C(F)(F)F)cn1)c1ccc(Cl)cc1
 : -0.59	1.4
> O=C(N/N=C1\CCCc2ccccc21)c1ccc(O)cc1
 : .	-0.9
> C=CCN1C(=O)/C(=c2\sc3n(c2=O)C(c2ccccc2)C(C(=O)OCC)=C(C)N=3)c2ccccc21 (centres undefined)
 : -0.23	.
> Cc1ccc(CN2COc3c(cc4c5c(c(=O)oc4c3C)CCC5)C2)cc1
 : 22	-0.15
> COC(=O)c1ccccc1NS(=O)(=O)c1ccccc1
 : 0.21	0.95
> CCCCc1cc(=O)oc2cc(C)c3c(C)c(C)oc3c12
 : 1.5	-0.85
> O=C(CSc1nnc2n1CCCCC2)Nc1c(Cl)cccc1Cl
 : 0.55	0.35

Copied from the list:
`O=C(NCCSc1ccc(C(F)(F)F)cn1)c1ccc(Cl)cc1` @ AID504770: 1.4
`Cc1ccc(CN2COc3c(cc4c5c(c(=O)oc4c3C)CCC5)C2)cc1` @ AID504770: -0.15
`C=CCN1C(=O)/C(=c2\sc3n(c2=O)C(c2ccccc2)C(C(=O)OCC)=C(C)N=3)c2ccccc21` (centres undefined) @ CapD inh: -0.23

Continuation:
Every second line gives: CapD inh	AID504770
> OC(C#CCN1CCOCC1)(c1ccccc1)c1ccccc1
 : .	-0.4
> COc1ccc(Nc2nnc(SCc3nc4ccc(Cl)cc4n3CCO)s2)cc1
 : .	0.2
> CCCOc1ccccc1/C=N/NC(=S)Nc1cc(Cl)ccc1Cl
 : 9.1	.
> CC1CCc2sc3ncnc(NCCCN(C)C)c3c2C1 (centres undefined)
 : .	3.1
> CC(=O)Nc1cc(C(=O)c2ccc(Cl)cc2)nn(-c2ccccc2)c1=O
 : 1.2	1.1
> CSc1ccc(/C=C2\C(=O)N(C)N=C2C)s1
 : -2.8	1.9
> COc1ccc(Nc2c(Cl)cc(OC)cc2Cl)cc1
 : 0.53	.
> O=C1c2ccc(Oc3cccc(N4C(=O)C5C6C=CC(C6)C5C4=O)c3)cc2C(=O)N1c1ccccc1 (centres undefined)
 : -0.02	.
> CCSc1sc(CC)cc1CCl
 : 0.38	0.05
> CCCN1CCC(N2CCCC(C(=O)N(C)CCc3ccc(OC)c(OC)c3)C2)CC1 (centres undefined)
 : 0.63	0.2

Next section.
Every second line gives: CapD inh	AID504770
> O=C(CC1(O)C(=O)N(Cc2ccccc2Cl)c2ccccc21)c1ccc2c(c1)OCCO2 (centres undefined)
 : -0.005	.
> CCOC(=O)c1ccc2c(c1)nc(SCC(=O)Nc1ccccc1F)n2CC
 : .	-0.4
> Cc1nn(CC(O)Cn2c(-c3ccccc3)c(-c3ccccc3)c3ccc4ccccc4c32)c(C)c1Br (centres undefined)
 : 2	.
> CC(C)c1ccc(S(=O)(=O)Nc2cc(SCC(=O)O)c(O)c3ccccc23)cc1
 : 0.085	-0.4
> O=C1NC(=Nc2ccccc2)S/C1=C/c1cc(Br)cc(Cl)c1O
 : -0.075	.
> Cc1c(C#N)c(NC(=O)CSc2nc3ccccc3s2)n(CC2CCCO2)c1C (centres undefined)
 : .	0
> CCOc1ccc(C2Oc3ccc(Cl)cc3C3CC(c4cccc(OC)c4)=NN32)cc1 (centres undefined)
 : 0.82	.
> COc1ccc(N(CC(=O)N2CCc3ccccc32)S(=O)(=O)c2c(C)n[nH]c2C)cc1
 : -0.17	-0.3
> Cc1cccc(C(O)(C(=O)NN(C(=O)c2ccco2)c2ccccc2)c2cccc(C)c2)c1
 : 0	.
> COc1cccc(-c2cc(C(=O)N3CCCCC3C)no2)c1 (centres undefined)
 : 0.23	-1.4

Next results
Every second line gives: CapD inh	AID504770
> CCOc1ccc(-c2cc(C#N)on2)cc1
 : .	0.65
> Cc1noc(C)c1COc1cccc(C(=O)OC2CCCCC2=O)c1 (centres undefined)
 : .	-0.35
> CCC(=O)c1ccc(OCC(O)CN(C)Cc2ccccc2OC)cc1 (centres undefined)
 : .	-0.45
> COc1cccc2cc(C(=O)C3=C(O)C(=O)N(CCCN(C)C)C3c3ccncc3)oc12 (centres undefined)
 : -1.8	-1
> CCN(Cc1ccccc1)C(=O)CCn1ccc(C)n1
 : 0.35	-0.7
> Cc1nc(-c2cc(-c3nc(-c4ccc(C(F)(F)F)cc4)no3)no2)cs1
 : 0.01	-0.2
> O=C(/C=C/c1cccs1)Nc1ccc(N2CCCC2)c(C(=O)O)c1
 : -2.9	0.65
> CN(C)c1ccc(-c2nc3cc(NC(=O)c4ccccc4)ccc3o2)cc1
 : 28	2.2
> CCOC(=O)c1c(CN(C)C)n(C)c2cc(Br)c(OC)cc12
 : 0.89	-0.4
> NC(=Nc1ccccc1)SC1CC(=O)N(c2ccccc2)C1=O (centres undefined)
 : .	-0.65

The results go on:
Every second line gives: CapD inh	AID504770
> COC(=O)c1cc(Cl)c(N)cc1OC
 : 0.48	-1.1
> Cc1ccc2c(c1)c(=O)c(Br)c(C)n2Cc1ccccc1
 : 0.31	0.25
> Cc1ccc(S(=O)(=O)Nc2cc(C(F)(F)F)ccc2N2CCOCC2)c(C)c1
 : .	2.5
> O=C(NC1CCCCC1)c1ccc(CN2CCOCC2)cc1
 : -0.14	-0.6
> O=C1OC(c2ccccc2)=N/C1=C1/OC(=O)c2ccccc21
 : -0.71	-0.65
> N#CCC(=O)Nc1cccnc1
 : 0.34	-0.65
> O=C1OC/C(=C(/O)c2ccccc2)C1=O
 : -3.1	1.9
> Cc1cccc(NC(=O)c2ccc(Cl)cc2[N+](=O)[O-])n1
 : 0.36	.
> Cc1nc(-c2ccc(/C(N)=N/O)s2)cs1
 : 3.4	1.5
> CCN(C(=O)CCc1ccccc1)C1CCCCC1
 : 0.27	-0.6

Next part:
Every second line gives: CapD inh	AID504770
> COC(=O)CSc1n[nH]c(-c2ccc(Cl)cc2)n1
 : -0.42	-0.15
> CN(C)c1cc(C(=O)N2CCN(C(=O)C(C)(C)C)CC2)nc(N(C)C)n1
 : -0.47	.
> Cc1ccccc1COC(=O)CCCC1=NS(=O)(=O)c2ccccc2N1
 : -0.16	-0.6
> CCCCNc1nc(SCC(=O)NCCc2ccc(S(N)(=O)=O)cc2)nc2ccccc12
 : 3.7	.
> CCOC(=O)C(C)n1ncn2cccc2c1=O (centres undefined)
 : 0.94	-1.1
> N#CC1=C(N)n2c(nc3ccccc32)NC1c1ccc(F)cc1 (centres undefined)
 : 0.24	0.8
> CCCc1cnc(N2CCN(C(=O)c3ccccc3)CC2)nc1
 : 9.4	-0.75
> Cc1cc(=O)oc2cc(NS(=O)(=O)c3ccc4c(c3)CCO4)ccc12
 : 90	-0.3
> CN1CCCc2cc(/C=C3\CCC(C4CCCC4)C3=O)ccc21 (centres undefined)
 : 0.36	-0.6
> CC(C)(C)n1nc2c(c1NC(=O)COc1ccccc1)CSC2
 : -0.01	0.1

Further results.
Every second line gives: CapD inh	AID504770
> Cc1nc(N2CCN(c3ccc(F)cc3)CC2)c2c(C)c(C)sc2n1
 : -0.34	.
> COC(=O)c1c(CSc2nnc(-c3ccco3)o2)nc2ccccc2c1-c1ccccc1
 : .	0.85
> C1=CSC(=C2SC=CS2)S1
 : .	-3.6*
> CCC1CCC(c2nnc(-c3ccc(Br)cc3)o2)CC1 (centres undefined)
 : -0.075	-0.1
> CC(C(=O)N1CCCCCC1)(c1ccccc1)c1ccccc1
 : -0.1	-0.45
> Cc1cc2cc(CNC(=S)NCCc3ccccc3)ccc2n1C
 : -0.78	2.5
> Cc1cncc(C(=O)NN)c1
 : 0.12	0.45
> N#C/C(C(N)=O)=C1/CCc2ccccc21
 : -2.7	-1.1
> COC(=O)c1ccc2c(c1)C1C=CCC1C(c1cccc3ccccc13)N2 (centres undefined)
 : -0.015	.
> CC(=O)Nc1ccccc1C(=O)OCC(=O)Nc1nc2ccccc2s1
 : -0.7	1.3

Next structures
Every second line gives: CapD inh	AID504770
> O=C(CSC(=S)N1CCOCC1)N1CCc2ccccc21
 : 0.14	0.1
> O=C1CSc2ccc(C(=O)N3CCN(S(=O)(=O)/C=C/c4ccccc4)CC3)cc2N1
 : .	-0.5
> CP(=O)(O)C(c1cccc(Cl)c1)C(F)(F)F (centres undefined)
 : -0.12	-0.15
> CCOC(=O)N1CCN(C(=O)CSCC(=O)Nc2nc(-c3cccs3)cs2)CC1
 : -0.57	-0.3
> CCC(=O)Oc1ccc(C(=O)CC)cc1OC
 : 0.64	2.5
> NC(=O)NNC1=Nc2cccc3cccc1c23
 : .	0.05
> C=CCc1cccc2cc(C(=O)O)c(=O)oc12
 : 24	2.5
> N#Cc1c(F)cccc1C(C#N)(c1ccccc1)N1CCOCC1 (centres undefined)
 : -1.1	0.2
> Cc1c(/C=N/O)sc2ccccc12
 : 0.6	-1.1
> Ic1cccc(C2Nc3ccccc3C(c3ccccc3)(c3ccccc3)O2)c1 (centres undefined)
 : -0.065	.

The list goes on:
Every second line gives: CapD inh	AID504770
> O=C(CCC(=O)c1cccs1)NCC1CCCO1 (centres undefined)
 : .	-0.6
> Cc1c2cnn(-c3ccccc3)c(=O)c2c(C)n1CCCC(=O)N1CCCC1
 : -0.27	-0.75
> CCOC(=O)c1c(N2C(=O)CC3(CCCC3)C2=O)sc(C)c1-c1ccccc1
 : 0.29	.
> CCCCOc1ccccc1-c1nc(SCC(=O)O)n[nH]1
 : 0.015	-0.8
> Cc1cc2ccccc2n1CCNC(=O)c1cccs1
 : 1.3	-0.1
> O=C(Nc1cccc(Cl)c1)n1nccc1-c1cc(-c2ccccc2)no1
 : 0.34	-0.2
> CCn1c(-c2ccc3c(c2)OCCO3)cnc1SCC(=O)c1cc(C)n(-c2ncn[nH]2)c1C
 : .	1.6
> O=C(O)c1ccc(C#Cc2ccccc2)cc1
 : .	-1.1
> c1ccc(C2=NN3COc4ccccc4C3C2)cc1 (centres undefined)
 : .	0.4
> CCCN(Cc1ccc(N(CC)CC)cc1)CC1CC1
 : 0.22	0.05

Next entries follow.
Every second line gives: CapD inh	AID504770
> CC(C)=CC1C(CNC(=O)OCCc2ccccc2Cl)C1(C)C (centres undefined)
 : 0.29	.
> CCOC(=O)N1CCC(NC(=O)Nc2cc(C)oc2C(F)(F)F)CC1
 : 0.45	-0.55
> O=C(Nc1nccs1)c1ccc(Cl)s1
 : -1.2	-1.1
> CN1CCC(N(C)C(C(=O)Nc2ccc(F)cc2)c2ccccc2)CC1 (centres undefined)
 : .	1.6
> COc1ccc(OCCNC(=O)OCCc2ccc(Br)cc2)cc1
 : 0.36	.
> COc1ccc(S(=O)(=O)N2CCSC2c2ccc(OC)c(OC)c2)cc1 (centres undefined)
 : 0.12	.
> CCC(CC)NS(=O)(=O)c1cccc(C(=O)NCCOc2ccccc2)c1
 : -0.22	-0.65
> Cc1c(N=CN(C)C)c(=O)n(-c2ccccc2)n1C
 : .	-0.5
> CC1CCCCN1S(=O)(=O)c1ccccc1C(=O)O (centres undefined)
 : .	1.4
> COc1ccccc1N1C(=O)NC(=O)/C(=C\c2cc(OC)c(O)c(OC)c2)C1=O
 : -1.6	.

The list continues.
Every second line gives: CapD inh	AID504770
> O=C(O)CCSCSCCC(=O)O
 : -0.31	.
> CCC1CSc2nc3ccsc3c(=O)n21 (centres undefined)
 : 0.66	-0.4
> CC1(C)CNC(=O)c2sc(N3CCCCC3)nc2C1
 : -1.4	0.3
> O=C1c2ccccc2C(=O)N1CNc1cccc(Cl)c1
 : 0.7	.
> N/C(=N\S(=O)(=O)c1cc(C(F)(F)F)cc(C(F)(F)F)c1)c1cccs1
 : -0.06	.
> O=S(=O)(c1ccc(Cl)cc1)N1CCC(N(C2CC2)S(=O)(=O)c2cccc(C(F)(F)F)c2)CC1
 : -0.49	.
> O=C(O)C1C2C=CC3(CN(CCc4ccccc4)C(=O)C13)O2 (centres undefined)
 : -0.3	-1.3
> Cc1ccc(C(=O)N(C)Cc2ccccc2)c(Cl)c1
 : 0.36	-0.7
> CC1Cc2ccccc2N1C(=O)CSc1cccc[n+]1[O-] (centres undefined)
 : .	-0.65
> CCOc1ccc(C2c3[nH]c4ccccc4c3CCN2C(=O)c2ccc(Cl)cc2Cl)cc1 (centres undefined)
 : -0.94	.

Full records, looked up by structure.
`O=S(=O)(c1ccc(Cl)cc1)N1CCC(N(C2CC2)S(=O)(=O)c2cccc(C(F)(F)F)c2)CC1` across the screens: CapD inh: -0.49; AID504770: .
`CC1Cc2ccccc2N1C(=O)CSc1cccc[n+]1[O-]` (centres undefined) across the screens: CapD inh: .; AID504770: -0.65
`CCC1CSc2nc3ccsc3c(=O)n21` (centres undefined) across the screens: CapD inh: 0.66; AID504770: -0.4

Next section.
Every second line gives: CapD inh	AID504770
> Cc1ccc(C2C3C(=O)N(C)C(=O)C3ON2c2ccccc2)cc1 (centres undefined)
 : -1.3	1.8
> O=Nc1ccc(NNC(=O)c2ccccc2O)cc1
 : -3.7	-2.9*
> Cn1c(=O)c2cc(S(=O)(=O)N3CCOCC3)ccc2n(C)c1=O
 : 0.12	0
> C=CCn1c(SCC(=O)Nc2ccc(OCC)cc2)nc2cc(C(=O)N3CCN(C)CC3)ccc2c1=O
 : -0.16	.
> Oc1ccc(-c2[nH]ncc2-c2ccc(Cl)cc2)c(O)c1
 : 1.4	0.7
> Cc1c(C)c(C)c(CNC(=O)c2ccccc2)c(C)c1C
 : -0.47	.
> COc1ccc(S(N)(=O)=O)cc1C(=O)NCC(c1cccs1)N(C)C (centres undefined)
 : .	1.5
> O=C(CSc1ccc(-c2ccco2)nn1)Nc1ccccc1
 : .	-0.6
> O=C(/C=C/c1ccc(Cl)cc1Cl)NCCCn1ccnc1
 : -0.64	.
> COc1cc(C2C(C(=O)N3CCOCC3)=C(C)NC3=C2C(=O)CCC3)ccc1OCc1ccccc1 (centres undefined)
 : 14	.
> N#Cc1oc2ccccc2c1NC(=O)COC(=O)c1ccc(N2C(=O)c3ccccc3C2=O)cc1
 : .	-0.35
